# Six1-Eya2 blk: blocks human Six1 binding to Eya2; Q15475+O00167; AlphaScreen GST-Six1/His-Eya2 binding, biochemical; hits give low values; control for the full effect not named in the record; activity change, % (concentration not given with the values); 360,000 compounds, 0.56% hits; in the data active = activity change below about -65%; inconclusive = about -30% to -65%; inactive = above about -30%; also: % is scaled to controls: 0 for no effect and ±100 for the full control effect
# Target sequence (O00167 whole entry, looked up): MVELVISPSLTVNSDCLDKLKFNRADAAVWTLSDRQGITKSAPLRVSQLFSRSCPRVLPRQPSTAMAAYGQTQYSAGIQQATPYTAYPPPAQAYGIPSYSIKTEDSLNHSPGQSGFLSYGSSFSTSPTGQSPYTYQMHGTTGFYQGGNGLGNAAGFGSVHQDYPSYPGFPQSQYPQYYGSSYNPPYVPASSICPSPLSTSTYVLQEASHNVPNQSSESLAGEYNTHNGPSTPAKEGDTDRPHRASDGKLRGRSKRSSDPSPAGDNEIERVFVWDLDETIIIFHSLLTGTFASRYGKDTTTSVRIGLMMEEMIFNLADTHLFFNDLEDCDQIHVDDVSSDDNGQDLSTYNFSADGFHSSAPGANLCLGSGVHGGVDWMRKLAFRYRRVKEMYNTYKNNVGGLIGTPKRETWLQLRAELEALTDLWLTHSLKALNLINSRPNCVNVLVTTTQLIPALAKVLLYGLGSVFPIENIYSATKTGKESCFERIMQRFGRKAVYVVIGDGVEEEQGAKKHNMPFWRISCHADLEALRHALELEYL
# Target sequence (Q15475 whole entry, looked up): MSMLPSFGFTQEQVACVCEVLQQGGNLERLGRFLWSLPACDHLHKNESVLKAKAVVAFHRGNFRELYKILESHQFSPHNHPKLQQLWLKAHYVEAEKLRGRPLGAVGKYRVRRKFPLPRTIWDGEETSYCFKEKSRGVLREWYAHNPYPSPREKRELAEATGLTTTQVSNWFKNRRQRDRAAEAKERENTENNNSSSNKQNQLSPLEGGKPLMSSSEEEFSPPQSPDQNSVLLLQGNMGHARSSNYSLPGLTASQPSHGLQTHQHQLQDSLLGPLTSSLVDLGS
#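 Homogeneous AlphaScreen proximity assay pairing GST-Six1 with His-tagged Eya2 (added as 5X mix: 250 nM and 500 nM) in 50 mM Tris pH 8.0, 300 mM NaCl, 1 mM TCEP. Glutathione donor and nickel acceptor beads; 1 h, 37 °C, dark.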
# TRPML1 agonist: activates the human TRPML1 channel | Q9GZU1 | TRPML1-expressing cells, Ca2+ dye fluorescence, FDSS; host cell line not named in the record; reference of the full effect not given here | activation, % (concentration not given with the values) | 410,000 compounds, 0.12% hits; in the data active = activation above about 50%; inconclusive = about 30% to 50%; inactive = below about 30%; also: 0% is about no effect; the text of the record puts the active cut at 80%
#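 Agonist activity was taken from a 110 s kinetic Ca2+ dye read on the FDSS after pinning compounds onto TRPML1-DL cells. The cells were seeded at 1,500/well with Tet inducer, incubated about 16 h, then dye-loaded at room temperature.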
# CtBP-E1A blk: blocks the CtBP interaction with E1A | AlphaScreen GST-E1A/His-CtBP binding, 1536-well; hits give low values; control for the full effect not named in the record | activity change, % (test concentration not listed) | 340,000 compounds, 0.49% hits | AID 651724; in the data active means activity change below about -65%; inconclusive means about -30% to -65%; inactive means above about -30%; also: % is scaled to controls: 0 for no effect and ±100 for the full control effect
#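 GST-E1A and His-tagged CtBP (125 nM each as 5X stock) were preincubated with pin-transferred compound for 2 h at 37 °C in the dark, then glutathione donor and nickel acceptor beads were added for 1 h before AlphaScreen reading.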
# TRPML1 inh: inhibitors of human TRPML1 channel; Q9GZU1; TRPML1-inducible cells, Ca2+ dye fluorescence, FDSS; hits give low values; inhibition of EC80 agonist-evoked calcium signal; activity change, negative = inhibition, % (concentration not given with the values); 390,000 compounds, 0.02% hits; in the data active means activity change below about -50%; inconclusive means about -30% to -50%; inactive means above about -30%;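 also: stimulus is agonist 54-4 at its EC80 concentration; % is scaled to controls: 0 for no effect and ±100 for the full control effect; the text of the record puts the active cut at -80%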
#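 TRPML1-DL cells, Tet-induced overnight (~16 h, 37 °C) at 1,500 cells/well, were loaded with Ca8 no-wash dye plus quencher for 45-90 min at room temperature. Compounds were pinned during FDSS kinetic reading; agonist 54-4 at EC80 (4 uM final) then added.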
# D2 PAM: positive allosteric modulators of human D2 dopamine receptor; AID 624464; potentiation, % (no concentration beside the values); P14416; 360,000 compounds, 0.23% hits; DiscoveRx D2 beta-arrestin cells, luminescence, 90 min; 100% = 57 uM dopamine signal; active = potentiation of 50% or more; inconclusive = 30% to 50%; inactive = 30% or less;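 also: compound concentration not given in the record; tested on top of an EC20 dose of dopamine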
#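 PathHunter beta-arrestin assay in DiscoveRx D2 cells. Compounds were added with an EC20 of dopamine (50 nM final) for 90 min at 37 deg C. Luminescence was read 1 h after detection reagent, with 57 uM dopamine as the EC100 control.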
# TRPV1 PAM: enhances activation of the human vanilloid receptor TRPV1; 320,000 compounds, 0.02% hits; Q8NER1; TRPV1-expressing cells, Fluo-8 calcium influx, capsaicin EC20 potentiation; host cell line not named in the record; control for the full effect not named in the record; potentiation, % at 8.33 µM; active means potentiation above 80%; inconclusive means 30% to 80%; inactive means below 30%; also: 0% is about no effect
#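 TRPV1-expressing cells were cultured overnight at 35.5C and loaded with Fluo-8 calcium dye for 40 to 90 min at room temperature. After a 10 s baseline, compound was added and calcium influx was read kinetically for 3 min (ex 480/em 520 nm).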
# Active calls of the source: *; u = inconclusive; x = no result given; & = joins results of further samples.
[1] OC(c1ccc(F)cc1)c1nc(-c2ccc(Cl)cc2)cs1 (configuration not stated)
[2] COCCCNC(=O)c1ccc(Cn2c(=O)c3ccccc3n(CC(=O)NCc3ccco3)c2=O)cc1
[3] CSc1ccc(CCNC(=O)Cn2ncc3c([nH]c4ccccc43)c2=O)cc1
[4] CN(C)CCNC(=O)c1ccc(CS(=O)(=O)c2c(Cl)cccc2Cl)o1
[5] Cc1c(Cl)cccc1-c1ccc(CNCc2ccccn2)o1
[6] CCCSC(=S)c1c(C)[nH]n(-c2ccccc2)c1=O
[7] COc1cc(C(=O)NCCC(=O)NC(C)C)cc(OC)c1OC
[8] CCOC(=O)Cn1cnc2c(cnn2-c2ccccc2)c1=O

entry no.	1	2	3	4	5	6	7	8
Six1-Eya2 blk	7.1	0.0	2.6	-3.3	u	-9.6	1.0	5.5
TRPML1 agonist	0.6	1.0	-0.5&2.6	0.4	2.2	1.5	-0.5	1.4
CtBP-E1A blk	2.5	x	-3.5	2.0	u	-0.9	-0.9	x
TRPML1 inh	x	-0.3	7.5&30.6	-6.5	12.0	19.5	45.4	-0.1
D2 PAM	-9.9	-8.2	-8.3	-3.5	-3.5	-8.2	-2.7	4.7
TRPV1 PAM	x	-21.4	6.5	x	-2.7	-20.9	-25.9	29.2

[9] CCN(CC(=O)Nc1ccc(OC)cc1)C(=O)c1oc2c(Cl)cccc2c1C
[10] CCCC(=O)Nc1cc(-c2nc3ncccc3o2)ccc1Cl
[11] CC(Oc1ccc(F)cc1)C(=O)Nc1ccc(S(=O)(=O)NC2=NCCCCC2)cc1 (configuration not stated)
[12] Cc1ccc(C(=O)N2CCCC(C(=O)c3ccc(Oc4ccccc4)cc3)C2)cn1 (configuration not stated)
[13] Cc1cc(OC(C)C(=O)N(Cc2ccco2)C2CCS(=O)(=O)C2)cc(C)c1Cl (configuration not stated)
[14] O=C(N/N=C/c1ccccc1C(=O)O)c1ccccc1Br
[15] COC(=O)c1ccccc1NC(=S)N1CCN(c2ccccn2)CC1
[16] COc1ccc(CN(C(=S)Nc2ccccc2)C2CC(=O)N(c3ccc(Cl)cc3)C2=O)cc1 (configuration not stated)

entry no.	9	10	11	12	13	14	15	16
Six1-Eya2 blk	-1.0	2.9	-11.9	-1.9	4.7	14.1	-1.1	2.3
TRPML1 agonist	0.9	0.0	0.0	6.6	0.3	0.5	1.6	0.7
CtBP-E1A blk	-0.8	-0.3	-21.4	1.9	3.1	5.9	x	9.0
TRPML1 inh	-12.5	-0.6	4.0	17.5	-7.4	-8.1	14.3	-6.7
D2 PAM	-3.7	-2.2	-7.4	-1.0	-2.9	-3.6	1.0	1.7
TRPV1 PAM	-6.4	-5.1	4.9	7.9	9.4	7.9	10.9	2.5

# Quoted from above: nos. 9 to 12
[9] CCN(CC(=O)Nc1ccc(OC)cc1)C(=O)c1oc2c(Cl)cccc2c1C
[10] CCCC(=O)Nc1cc(-c2nc3ncccc3o2)ccc1Cl
[11] CC(Oc1ccc(F)cc1)C(=O)Nc1ccc(S(=O)(=O)NC2=NCCCCC2)cc1 (configuration not stated)
[12] Cc1ccc(C(=O)N2CCCC(C(=O)c3ccc(Oc4ccccc4)cc3)C2)cn1 (configuration not stated)

entry no.	9	10	11	12
Six1-Eya2 blk	-1.0	2.9	-11.9	-1.9
TRPML1 agonist	0.9	0.0	0.0	6.6
CtBP-E1A blk	-0.8	-0.3	-21.4	1.9
TRPML1 inh	-12.5	-0.6	4.0	17.5
D2 PAM	-3.7	-2.2	-7.4	-1.0
TRPV1 PAM	-6.4	-5.1	4.9	7.9

# (list continues)
[17] O=C(Nc1c(C(=O)Nc2cccc3ccccc23)cnn1-c1ccccc1)c1ccco1
[18] Cc1cc(NC(=O)c2ccc(Br)cc2)nc(C)n1
[19] O=C(NCc1cccc(CNC(=O)C(=O)NCc2ccco2)c1)C(=O)NCc1ccco1
[20] CCN(CC(=O)Nc1ccc(OC)cc1)C(=O)Cc1ccsc1
[21] O=C(O)CSCNC(=O)C12CC3CC(CC(C3)C1)C2
[22] COc1ccc(CNc2cccnc2Cl)cc1
[23] Cc1c(C(=O)OCC(=O)N(C)CC(=O)Nc2ccc(F)cc2)oc2ccccc12
[24] CCOCC(=O)N(CC)Cc1ccccc1

entry no.	17	18	19	20	21	22	23	24
Six1-Eya2 blk	-15.4	-4.8	-14.9	4.4	5.9	1.3	0.7	2.5
TRPML1 agonist	0.3	-0.8	1.3	-0.1	-0.3	-1.1	-0.8	0.0
CtBP-E1A blk	-13.6	-0.7	-8.9	2.0	2.7	1.5	x	5.1
TRPML1 inh	-6.9	17.9	-8.6	-8.5	-7.1	x	-6.9	-14.6
D2 PAM	-9.9	-4.8	-1.0	13.8	-5.3	x	-15.6	-3.6
TRPV1 PAM	-9.2	-11.3	-2.8	10.2	-10.7	x	-11.5	-1.6

[25] Cc1ccc(Cl)cc1N(CC(=O)NCc1ccc2c(c1)OCO2)S(C)(=O)=O
[26] CCOC(=O)COc1cc(-n2c(=S)[nH]c3ccccc3c2=O)c(Cl)cc1Cl
[27] COc1cc(/C=C/C(=O)NCCN2CCOCC2)cc(OC)c1OC
[28] Nc1nc(SCC(=O)NC2CCCCCC2)[nH]c(=O)c1-c1ccccc1
[29] CC(C)c1ccc(NC(=S)Nc2cccc3ccccc23)cc1
[30] N#CCC(=O)N/N=C\c1ccc(OC/C=C/c2ccccc2)cc1
[31] CC(C)OC(=O)c1cc2c(ccn2C)n1CC(=O)N1CCC(Cc2ccccc2)CC1
[32] Cn1cc(CN2CCCC(CO)C2)c(-c2ccc(Oc3ccccc3)cc2)n1 (configuration not stated)

entry no.	25	26	27	28	29	30	31	32
Six1-Eya2 blk	0.7	-2.2	3.4	4.2	-14.1	-12.0	u	0.2
TRPML1 agonist	-0.8	0.8	0.6	0.8	1.1	0.1	0.4	0.9
CtBP-E1A blk	-23.8	x	-4.1	3.1	-6.7	u	u	x
TRPML1 inh	41.5	3.4	-5.2	4.5	-20.8	-4.1	-5.1	12.3
D2 PAM	-7.3	-8.5	-8.1	-8.9	-22.2	-5.4	-8.5	-13.2
TRPV1 PAM	3.5	3.7	-1.8	3.6	-5.4	5.2	-19.4	-10.1

[33] CCOC(=O)c1ccccc1NC(=O)c1cn(-c2ccc(OC)cc2)c(=O)c2ccccc12
[34] COc1ccc(Br)cc1CNC(=O)CN1C(=O)C(c2ccccc2)Oc2cccnc21 (configuration not stated)
[35] CCC(C)[C@H](NC(=O)N1CC(=O)Nc2ccccc21)C(=O)N[C@H](Cc1c[nH]c2ccccc12)C(=O)O (some centres not stated)
[36] NNc1ccc(S(=O)(=O)N2CCCCC2)cn1
[37] O=c1oc2ccc(Cl)cc2nc1/C=C(\O)c1cccs1
[38] Cc1ccc(C(=O)CSc2nnc(C3CC3)n2C2CC2)s1
[39] CC1(C)C[C@H]2C3=CCC4[C@@]5(C)CC[C@H](O)[C@@](C)(CO)C5CC[C@@]4(C)[C@]3(C)C[C@@H](O)[C@@]2(CO)[C@@H](O)[C@@H]1O (some centres not stated)
[40] CC(=O)Oc1cccc(C(=O)Nc2cccc(C(=O)Nc3ccccc3C(=O)O)c2)c1

entry no.	33	34	35	36	37	38	39	40
Six1-Eya2 blk	5.0	-4.5	-0.9	-16.6	-3.2	-3.5	-1.2	u
TRPML1 agonist	1.9	1.3	x	-0.4	-0.3	0.3	-0.1	1.3
CtBP-E1A blk	1.1	-4.9	-0.5	x	1.6	5.5	3.4	-27.6
TRPML1 inh	-7.6	2.8	x	-13.7	-8.6	15.8	17.6	21.0
D2 PAM	-15.2	-14.8	-23.9	-13.2	0.8	-6.7	-21.5	0.2
TRPV1 PAM	-2.5	0.0	-1.3	6.0	-31.9	1.9	x	5.2

[41] O=C(COc1ccc(C(=O)c2ccccc2)cc1)NCc1ccc(F)cc1
[42] COC(=O)c1ccc(S(=O)(=O)NC(C)(C)C)n1C
[43] COC(=O)CN1C(=O)[C@H]2[C@@H](C3CC3)N3C(=O)CN(Cc4ccccn4)C(=O)[C@@]3(Cc3ccccc3)[C@H]2C1=O
[44] CCCCC(=O)Nc1ccc(C(=O)NNC(=O)CCCOc2ccc(Cl)cc2Cl)cc1
[45] COc1ccc(-c2cc(C(F)(F)F)nc(-n3ccnc3)n2)cc1
[46] C=CCN1C(=O)c2cccc3c(N4CCCCC4)ccc(c23)C1=O
[47] O=C1c2ccccc2C(c2nnnn2-c2ccc3c(c2)OCCO3)N1Cc1ccc2c(c1)OCO2 (configuration not stated)
[48] Cc1ccc(C(=O)NCc2ccc(Cl)cc2)o1

entry no.	41	42	43	44	45	46	47	48
Six1-Eya2 blk	6.1	-9.2	-3.4	7.7	1.2	21.6	-8.0	1.5
TRPML1 agonist	3.8	-0.6	-0.6	-0.2	-0.4	55.2*	-0.2	0.1
CtBP-E1A blk	3.9	-9.2	-12.9	5.3	1.2	43.2	2.3	-0.1
TRPML1 inh	-2.9	18.9	-13.0	8.5	17.2	1.6	x	17.0
D2 PAM	4.0	0.3	-8.7	-2.2	-3.0	-1.7	x	-11.8
TRPV1 PAM	-6.8	-2.1	-6.4	-9.8	-6.5	0.1	x	-15.0

[49] CC(C)c1ccc(S(=O)(=O)N2CCN(C(=O)c3ccco3)CC2)cc1
[50] COc1ccccc1CNC(=O)N1CCN(S(=O)(=O)c2ccc(C)cc2)CC1
[51] CC(C)(C)NC(=O)COC(=O)c1ccccc1NC(=O)c1ccco1
[52] O=C1c2cccc3cccc(c23)C(=O)N1c1cccc(O)c1
[53] CCN(CC)CCOc1ccccc1OC
[54] COc1ccc(CN2CCC(CO)(Cc3ccccc3)CC2)cc1Cn1cccn1
[55] C[C@@H]1ON(C)[C@H]2C[C@H]3c4[nH]c5ccc(-c6ccc7c(c6)OCO7)cc5c4CCN3C[C@@H]12
[56] COc1ccc(N(Cc2ccccc2)S(=O)(=O)c2cc(C(=O)O)ccc2Cl)cc1

entry no.	49	50	51	52	53	54	55	56
Six1-Eya2 blk	10.6	0.2	-11.5	-6.5	0.4	-0.1	u	5.2
TRPML1 agonist	-1.5	0.3	0.5	1.6	0.8	0.7	0.6	0.3
CtBP-E1A blk	14.2	0.0	20.3	2.4	12.4	-5.5	-29.5	2.9
TRPML1 inh	-24.5	-4.2	-29.8	4.0	5.5	-4.4	-6.4	8.3
D2 PAM	-5.3	-3.4	2.2	1.4	-32.7	-5.4	-2.7	-2.8
TRPV1 PAM	-6.8	-11.3	-2.8	8.0	2.9	-6.4	x	16.9

[57] O=C1OC(CC(=O)N(Cc2nnc(-c3ccccc3Cl)o2)C2CC2)c2ccccc21 (configuration not stated)
[58] CC1CN(C(=O)N[C@@H](Cc2ccccc2)C(=O)O)CC(C)O1 (some centres not stated)
[59] C=CCN1C(=NC(=O)CCC)SC2CS(=O)(=O)CC21 (configuration not stated)
[60] Cc1ccc(NC(=O)CCn2cc(C(F)(F)F)ccc2=O)cc1

entry no.	57	58	59	60
Six1-Eya2 blk	-6.2	-0.1	5.3	-7.8
TRPML1 agonist	-0.5	-0.8	0.5	-0.5
CtBP-E1A blk	x	-3.5	9.2	-28.3
TRPML1 inh	-5.0	1.4	15.1	17.7
D2 PAM	1.2	-6.5	-3.7	9.1
TRPV1 PAM	3.7	-2.7	-15.5	x
